Screening results as filed in PubChem.
LASV entry inh = qHTS for Inhibitors of binding or entry into cells for Lassa Virus; 1.2% of 300,000 active; Potency, µM (titrated, usually from 37.9 µM), without a hit: at the highest dose activity change, negative = inhibition, usual class: inhibitors; AID 540256, 2011; Lassa virus pseudotype entry inhibition, cell reporter; control for the full effect not named in the record; active means well fitted inhibition curve with a large enough effect; inconclusive means small, poorly fitted or top-dose-only effect, or effect the other way; inactive means flat fitted curve, though single readings scatter; tested in HEK293 cells; further: on the % scale 0 is the no-effect control and ±100 the full control effect; nearly all actives have a fitted effect of over 50% in size; luciferase read-out
Marburg entry inh = qHTS for inhibitors of binding or entry into cells for Marburg Virus | AID 540276, 2011 | Potency, µM (doses to about 37.8 µM), for the others: at the highest dose activity change, negative = inhibition, actives largely listed as inhibitors | 1.8% of 300,000 active | Marburg virus pseudotyped entry inhibition, cell reporter; control for the full effect not named in the record; about a third of the inactives were read at about 46 µM; active = well fitted inhibition curve with a large enough effect; inconclusive = small, poorly fitted or top-dose-only effect, or effect the other way; inactive = flat fitted curve, though single readings scatter; tested in HEK293 cells; about a fifth of its hits are not listed in these tables; further: on the % scale 0 is the no-effect control and ±100 the full control effect; luciferase read-out
SARS PLpro yeast = qHTS of Yeast-based Assay for SARS-CoV PLP. S. cerevisiae expressing SARS-CoV PLpro, growth rescue; control for the full effect not named in the record. Potency, µM (titrated, usually from 32.9 µM), for the others: at the top dose activity, positive = growth rescue. 0.19% of 330,000 active; active means well fitted rising curve with a large enough effect; inconclusive means small, poorly fitted or top-dose-only effect; inactive means no such curve, though single readings can be large or run the other way; further: 0% is about no effect; nearly all actives have a fitted effect of over 55% in size; growth read by luminescence after 48 h
RE007 growth inh = qHTS Assay for Inhibitors of the HIV-1 protein Vpr; S. pombe RE007 Vpr strain, BacTiter-Glo ATP luminescence, 24 h; control for the full effect not named in the record; Potency, µM (highest dose often 92.2 µM), for inactives: at the highest dose activity change, negative = less growth; 0.21% of 360,000 active; AID 651644, 2012; active = well fitted falling curve with a large enough effect; inconclusive = small, poorly fitted or top-dose-only effect; inactive = no such curve, though single readings can be large or run the other way;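 further: on the % scale 0 is the no-effect control and ±100 the full control effect; nearly all actives have a fitted effect of over 50% in size; the assay follows cell death caused by Vpr and the record does not say whether a fall means rescue or toxicity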
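Fission yeast strain RE007, carrying one chromosomally integrated HIV-1 vpr copy, was seeded at OD 0.01 in PMG+AL medium with 23 nL pinned compound. After 24 h at 30 °C and 99% humidity, viability was read by BacTiter-Glo luminescence.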
NS1 inh = qHTS Assay for Inhibitors of Influenza NS1 Protein Function; 0.4% of 270,000 active; Potency, µM (series often up to 46.1 µM), inactives show at the top dose activity, positive = more growth; S. cerevisiae slowed by influenza A NS1, growth recovery by OD600; active means well fitted rising curve with a large enough effect; inconclusive means small, poorly fitted or top-dose-only effect; inactive means no such curve, though single readings can be large or run the other way; further: nearly all actives have a fitted effect of over 50% in size
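OD600 was taken as the measure of yeast growth restored by compound in an NS1-expressing S. cerevisiae strain. Cells had been washed out of glucose medium and diluted 1:100 into galactose -URA medium, pH 6.0.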
Cruzain inh Det = qHTS Assay for Promiscuous and Specific Inhibitors of Cruzain (with detergent); purified cruzain, Z-FR-AMC fluorescence, 0.01% Triton; 0.43% of 200,000 active; Potency, µM, for inactives: max response, negative = inhibition, hits mostly inhibitors; AID 1478, 2009;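 further: plate controls were neutral wells for no effect and buffer without enzyme for full effect; nearly all actives have a fitted effect of over 40% in size; top concentration of the series not given in the record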
Target sequence (P25779 123-467 limits assumed): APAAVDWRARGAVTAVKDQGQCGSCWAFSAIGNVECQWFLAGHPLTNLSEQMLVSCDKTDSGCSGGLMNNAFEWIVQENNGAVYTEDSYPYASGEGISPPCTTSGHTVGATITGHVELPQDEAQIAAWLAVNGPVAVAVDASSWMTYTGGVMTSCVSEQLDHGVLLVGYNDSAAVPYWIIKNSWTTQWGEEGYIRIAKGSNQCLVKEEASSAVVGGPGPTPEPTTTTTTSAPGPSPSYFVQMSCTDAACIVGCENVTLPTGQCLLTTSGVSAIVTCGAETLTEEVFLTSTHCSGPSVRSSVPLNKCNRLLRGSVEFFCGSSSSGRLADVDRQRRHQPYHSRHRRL
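Z-FR-AMC hydrolysis (2 uM substrate) by cruzain (1.5 nM) monitored kinetically at ex 360/em 450 nm after 15 min room-temperature compound exposure; 0.01% Triton X-100, pH 5.5, 5 mM DTT.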
Cruzain noTriton = qHTS Assay for Promiscuous and Specific Inhibitors of Cruzain (without detergent) | 2.3% of 200,000 active | AID 1476, 2009 | Cruzipain (Trypanosoma cruzi), P25779 | Potency, µM, for the others: max response, negative = inhibition, most hits filed as inhibitors | purified cruzain, Z-FR-AMC fluorescence, no detergent;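 further: plate controls were enzyme without inhibitor for no effect and buffer without enzyme for full effect; nearly all actives have a fitted effect of over 40% in size; top concentration of the series not given in the record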
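Detergent-free condition (0.00005% Triton X-100) in acetate buffer pH 5.5 with DTT. 1.5 nM enzyme and compound were pre-mixed 15 min, then 2 uM Z-FR-AMC substrate added; reaction progress from fluorescence change between first and third reads (60 s).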
2A StopGo = High Throughput Screening for Foot and Mouth Disease Virus Antivirals; Potency, µM (series often up to 57.9 µM), without a hit: at the top dose signal change, negative = less light; AID 1159524, 2015; human cells with a luciferase reporter of 2A StopGo recoding; control for the full effect not named in the record; 1.2% of 410,000 active; active = well fitted falling curve with a large enough effect; inconclusive = small, poorly fitted or top-dose-only effect; inactive = no such curve, though single readings can be large or run the other way; tested in HEK293T cells; further: on the % scale 0 is the no-effect control and ±100 the full control effect; nearly all actives have a fitted effect of over 45% in size; luciferase light after 4 h
An asterisk follows results filed as active; u = inconclusive; x = not tested or not shown; & = joins results of further samples; [ ] = another dose, or the depositor's remark. Unless noted, the call rests on the fitted dose curve; in most records, active means well fitted curve in the direction sought with a large enough effect; inconclusive means small, poorly fitted or top-dose-only effect, or another doubt; inactive means no such curve, though single readings can be large; an effect the other way counts as inactive or inconclusive. Potency means the concentration at half of the fitted maximal effect.

Screens in order: LASV entry inh | Marburg entry inh | SARS PLpro yeast | RE007 growth inh | NS1 inh | Cruzain inh Det | Cruzain noTriton | 2A StopGo
CCn1c(SCc2c(F)cccc2Cl)nc(=O)c2c(C(=O)OC)cc(C3CC3)nc21
  7%[46.1 µM] | x | x | x | x | -4.0% | -26% | -28%
COC(=O)c1ccc(CSc2nnc3nc(C)cc(C)n23)cc1
  -25% | 4%[46.1 µM] | -1% | 20% | x | x | x | u
O=C(NCc1ccco1)Nc1cccs1
  u | 13% | -2% | 5% | 0% | 0.6% | -2% | 23%
COc1ccc(CC(=O)O/N=C(\N)c2ccccc2)cc1OC
  0%[46.1 µM] | u | 0% | 3% | -4% | x | x | -1%
COC(=O)c1cc2oc3ccccc3c2n1Cc1c(F)cccc1Cl
  x | -4%[46.1 µM] | x | x | x | 0.0% | 1% | -16%
C#CC(C)(CC)NC(=O)c1cc2nc(C3CC3)cc(C(F)(F)F)n2n1 (stereo not given)
  u | u | -3% | 23% | x | x | x | 13%
CCOCCCNC(=O)CSc1ccccc1
  18% | u | 4% | -8% | -20%[9.22 µM] | 7.1% | -8% | 10%
COc1cc(NC(=O)c2cncc(-c3ccc(C#N)cc3)c2)cc(C(=O)Nc2cccc(C(F)(F)F)c2)c1
  x | x | -1% | 1%&-7% | 0% | x | x | u
COC(=O)CNC(=O)C1CC(=O)N(CCc2ccc(F)cc2)C1 (stereo not given)
  -1% | 2% | -1% | -2% | 0% | x | x | -14%
CCOC(=O)c1c(C)[nH]c(C)c1S(=O)(=O)N1CCCC(C(=O)Nc2ccc(C)c(N(C)C)c2)C1 (stereo not given)
  0%[46.1 µM] | x | x | x | x | 1.3% | 6% | 22%
COc1ccc(-c2[nH]ncc2CN(CC2CCC(=O)N2)C(C)C)cc1F (stereo not given)
  -3% | 6%[46.1 µM] | 1% | -6% | 2% | x | x | -11%
Cc1ccc(-c2nn(-c3ccccc3)cc2/C=C(\C#N)c2cccc(C#N)c2)o1
  u | 10% | -1% | -7% | 2% | -0.2% | u | -2%
O=C(c1ccc(Br)cc1)N1CCC(c2nc3ccccc3s2)CC1
  23%[46.1 µM] | -22%[46.1 µM] | x | x | x | -14% | 5% | -17%
Cc1ccc(-n2c(-c3cc(-c4ccco4)[nH]n3)n[nH]c2=S)c(Br)c1
  11% | 16% | 3% | 14% | 13% | x | x | -2%
N#Cc1c(C(F)(F)F)cc(-c2ccc(F)cc2)[nH]c1=O
  0% | -21%[46.1 µM] | 0% | -6% | x | x | x | u
O=C(O)c1ccc(Cl)c(S(=O)(=O)NC(Cc2c[nH]c3ccccc23)C(=O)O)c1 (stereo not given)
  x | x | -1% | -4% | 6% | x | x | -6%
CC(C)C(C(=O)Nc1nccs1)c1ccc(Cl)cc1 (stereo not given)
  -20% | u | -1% | 50% | x | x | x | u
CC1(c2nnc(-c3ccc(F)cc3)o2)CC(c2c(Cl)cccc2Cl)=NO1 (stereo not given)
  x | x | -4% | -13% | -8% | x | x | 0%
CC(C)NC(=O)N1CC(c2ccccc2)C(c2ccc(Cl)cc2)=N1 (stereo not given)
  x | x | -1% | 5% | -64% | x | x | -3%
Cc1ccc(Cn2c(=O)c3ccccc3n3c(SCC(=O)N4CCCCC4C)nnc23)cc1 (stereo not given)
  -10% | -2% | 0% | 12% | -7% | -5.7% | 7% | -21%
O=C(NNS(=O)(=O)c1ccccc1[N+](=O)[O-])c1ccc(F)cc1
  x | x | 1% | -5% | -3% | x | x | 47%[activator]
CCCc1cc(=O)[nH]c2nnc(SCC(=O)NCc3ccc4c(c3)OCO4)n12
  -3% | 2% | -1% | -7% | x | x | x | -14%
COc1cc2c(cc1NC(=O)C1CCCO1)oc1ccccc12 (stereo not given)
  108%[14.3 µM] | 9% | -18% | -30% | -104% | -9.9% | -6% | 52%[activator]
CCOc1cc(NC(=S)NCc2ccco2)c(OCC)cc1NC(=O)CC(C)C
  4% | u | -4% | 11% | 2% | -5.6% | u | -16%
Cc1nc(N2CCN(c3ccccc3O)CC2)c2c(-c3ccccc3)csc2n1
  u | u | -4% | 4% | 8% | x | x | u
O=C(Cc1c(O)c2ccccc2oc1=O)c1ccc(C(F)(F)F)cc1
  15% | 6% | -2% | 3% | 3% | x | x | -1%
O=C(CCC(=O)Nc1ccc(F)cc1)N/N=C/c1cccnc1
  5%[46.1 µM] | u | 1% | -10% | 9% | x | x | -5%
CCc1cc2cc(C(=O)Nc3ccc(F)cc3)sc2s1
  0% | u | 3% | -6% | -1% | -18% | u | 23%
CC1CCN(S(=O)(=O)c2ccc3c(c2)N(CC(=O)NCCCOC(C)C)C(=O)CS3)CC1
  x | x | 2% | 13% | -30% | x | x | 2%
CCOC(=O)c1ccc(N2C(=O)c3n[nH]c(C)c3C2c2ccccc2OC)cc1 (stereo not given)
  -11%[46.1 µM] | -5%[46.1 µM] | x | x | x | -13% | 4% | 0%
Cc1cc(C)nc(NS(=O)(=O)c2ccc(NC(=O)C3(c4ccc([N+](=O)[O-])cc4)CCCC3)cc2)n1
  0% | u | 20% | 5% | 8% | -4.6% | u | 27%
CC(C)CC(=O)Nc1cccc(-c2cn3ccsc3n2)c1
  8% | u | 0% | -1% | -4% | -1.6% | 8% | 66%[activator]
O=C(Cc1csc(N2CCOCC2)n1)N/N=C/c1ccc(O)c(O)c1O
  1% | 1%[46.1 µM] | 10µM* | 12% | x | x | x | -14%
CCCCN(C(=O)c1ccc([N+](=O)[O-])s1)c1c(N)n(CC(C)C)c(=O)[nH]c1=O
  7% | 11% | 4% | -9% | x | x | x | -8%
O=C(CCNS(=O)(=O)c1ccc(Cl)cc1)NCc1cccs1
  -17%[46.1 µM] | u | -2% | 4% | x | x | x | 14%
COc1ccc(C2CC(c3ccc(Br)cc3)Nc3nc(N)nn32)cc1 (stereo not given)
  5% | u | 2% | -2% | -6% | -2.6% | u | -23%
COc1ccc(-c2cc(C(=O)NCc3ccco3)c3ccccc3n2)c(OC)c1
  x | x | 2% | -14% | -9% | x | x | 0%
O=C(O)c1ccc(NC(=S)NC(=O)c2ccc(-c3ccccc3)cc2)cc1
  5%[46.1 µM] | u | 0% | 2% | x | x | x | 8%
O=C1CC(c2ccccc2)Cc2nc(N3CCc4ccccc4C3)ncc21 (stereo not given)
  15µM* | 15% | -1% | 6% | 12% | -2.9% | u | -6%
COc1cc(C(C(=O)NC(C)(C)C)N(C(=O)CNC(=O)c2cccs2)c2cccnc2)cc(OC)c1OC (stereo not given)
  6% | 2%[46.1 µM] | 0% | 15% | 3% | x | x | -20%
COC(=O)c1ccc(CSc2nnnn2Cc2ccccc2)cc1
  -4% | 0% | -11% | 8% | -17% | 9.5% | 0% | -6%
O=C(/C=C/c1ccc(F)cc1)NCCc1ccc2c(c1)OCCO2
  1% | 3% | 4µM* | -20% | -18% | -6.1% | 2% | -12%
Cc1c(Cl)cccc1NC(=S)NCc1cccs1
  -18% | -9% | 14µM* | -6% | -11% | 0.5% | 12% | 18%
Cc1ccc(NC(=O)c2cc(S(=O)(=O)c3ccccc3)ccc2Cl)cc1
  -16% | u | -4% | 25% | 2% | 6.3% | -1% | -23%
CC(=O)Nc1nc(-c2ccc3c(c2)CCO3)cs1
  x | x | 0% | 18% | -4% | x | x | 15%
S=C1NCCOCCOCCOCCNC(=S)NCCOCCOCCOCCN1
  -1% | -2% | 13% | 1% | -2% | -1.4% | u | 10%
O=C(NCc1cn2ccsc2n1)c1c(F)cccc1Cl
  x | x | -4% | -4% | u | -9.5% | 20µM* | -3%
CCN(CC)CCP(=O)(c1ccccc1)c1ccccc1
  5% | 12% | 7%[6.58 µM] | 2% | -11% | -0.5% | -4% | x
O=C1CS(=O)(=O)N(Cc2ccc(F)cc2)c2ccccc21
  -29%[46.1 µM] | x | 0% | -17% | x | x | x | -20%
CCC(=O)N1c2ccc(S(=O)(=O)NCc3ccccc3)cc2CC1C (stereo not given)
  x | x | 5% | -9% | 5% | x | x | 13%
O=C(CNc1ccccc1F)N/N=C/C1CC=CCC1 (stereo not given)
  -2% | 3%[46.1 µM] | -1% | -3% | x | x | x | 0%
COc1ccc(C(CNC(=O)CCOc2ccccc2)N(C)C)cc1 (stereo not given)
  -1% | -27% | 3% | 7% | 9% | 4.3% | -10% | 16%
CNC(=S)N1CCN(c2ccc(Cl)c(Cl)c2)CC1
  -2% | -20%[46.1 µM] | -3% | 19% | -9% | x | x | -17%
Cc1ccc(NC(=O)/C=C/c2ccc(C)o2)c(C)c1
  6%[46.1 µM] | u | x | x | x | -9.3% | -1% | 11%
CS(=O)(=O)N1CCC(C(=O)Nc2ccc(F)c(Cl)c2)CC1
  10% | 14% | 0% | -4% | 5% | x | x | -13%
Cc1ccccc1N1CCN(C2CCCN(C(=O)c3cn4c(C)cccc4n3)C2)CC1 (stereo not given)
  x | x | 5% | -6% | 5% | x | x | u
Cc1ccc(C(=O)NCCC(=O)N2CCC3(CC2)NCCc2[nH]cnc23)cc1
  6%[46.1 µM] | 17%[46.1 µM] | 8% | 33% | 0% | x | x | 3%
N/C(=N\S(=O)(=O)c1ccccc1)c1ccc([N+](=O)[O-])cc1
  7% | u | 5% | -13% | -3% | -2.7% | -9% | 1%
CSc1nnc(-c2ccc(S(=O)(=O)N3CCCC3)cc2)n1C
  4% | 14% | 3% | -6% | -7% | 2.1% | -1% | -20%
COc1ccc(OCC(O)Cn2ccnc2C)cc1 (stereo not given)
  1% | 4% | 12% | 0% | 0% | 1.4% | 2% | x
